# ALR inh = inhibitors of human ALR sulfhydryl oxidase, primary screen, biochemical, H2O2 detection, HRP-luminol luminescence, single point; FAD-linked sulfhydryl oxidase ALR (Homo sapiens), P55789; purified ALR, DTT oxidation; inhibition, % (test concentration not listed); 3.8% of 290,000 active; AID 485317, 2010;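 active = mean and each replicate at 75% or more; inconclusive = only one of the two met; inactive = neither met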;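 note: stock transfer was 7.5 nL into about 7.5 µL; 0% = neutral wells and 100% = wells with inactivated enzyme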
# Vif TR-FRET = inhibitors of Vif binding to APOBEC3G peptide, primary screen, biochemical, TR-FRET, GST-Vif 1-94, biotin-A3G peptide, dose response retest (AID 1117319). TR-FRET GST-Vif / biotin-A3G peptide binding; higher % means a stronger effect; test concentration not given here; strong numbers were not always called active. inhibition, %, or IC50 in µM where a hit was titrated. 0.57% of 260,000 active;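 active = above the screen mean plus three standard deviations and confirmed in dose response; inconclusive = results disagree or hit not tested in dose response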;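 note: Vif residues 1-94 fused to GST binding biotinylated APOBEC3G peptide 110-148; 0% = full assay without inhibitor and 100% = GST in place of GST-Vif; retest series ran down from 100 µM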
# RanGTP-Imp inh = inhibitors of RanGTP-importin-beta interaction, primary screen, biochemical, FRET, CFP-Ran, YFP-importin-beta, homogeneous; inhibition, % (test concentration not listed); 1.1% of 300,000 active; cell-free CFP-Ran/YFP-importin-beta FRET ratio; AID 2216, 2009;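 active = most replicates above 15%; inconclusive = exactly half above 15%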;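 note: 0% = DMSO wells and 100% = Ran loaded with GDP instead of GTP; wells of about 40 µL received 100 nL stock; the first replicate is given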
# Calb FLC = C. albicans growth inhibition with fluconazole, primary screen, CaCi-2 strain, Alamar Blue fluorescence; 0.57% of 300,000 active; growth inhibition, % (test concentration not listed); C. albicans CaCi-2 (fluconazole-resistant clinical isolate) + fluconazole, 48 h; AID 1979, 2009;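 active = most replicates above 75%; inconclusive = exactly half above 75%; inactive = most below 75%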;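 note: all wells also contain fluconazole at 8 µg/ml as a sub-toxic cotreatment; 0% = median of DMSO wells and 100% = median of geldanamycin control wells; wells of about 8 µL received 7.5 nL stock; the first replicate is given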
# LANA-H2B inh = blockers of LANA interaction with H2A/H2B – biochemical, FP readout, HTS, primary screen | inhibition, % (test concentration not listed) | 0.6% of 320,000 active | cell-free LANA-H2A/H2B peptide, fluorescence polarization; in the data active = inhibition mostly above about 10%, no sharp cut-off; inactive = mostly below about 6.7%;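 note: stock transfer was 7.5 nL into about 10 µL; 0% = median of vehicle wells and 100% = median of positive control wells; one replicate is shown; the record names a cut of 25% in any replicate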
# HNF4A DNA FP = change in binding of human HNF4A to DNA, primary screen, biochemical, fluorescence polarization, FITC-DNA. 1 h. 0.3% of 360,000 active. activity change, % at 10 µM. Hepatocyte nuclear factor 4-alpha (Homo sapiens), P41235; in the data active = activity change above about 30%, passing the limit was not always enough;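 note: controls were the assay level and a saturating level of protein; the project sought stronger binding though the title names inhibitors; some compounds called inactive have numbers as strong as hits; positive values seem to mean higher polarization but the record does not say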
# Target sequence (P41235 whole entry, looked up): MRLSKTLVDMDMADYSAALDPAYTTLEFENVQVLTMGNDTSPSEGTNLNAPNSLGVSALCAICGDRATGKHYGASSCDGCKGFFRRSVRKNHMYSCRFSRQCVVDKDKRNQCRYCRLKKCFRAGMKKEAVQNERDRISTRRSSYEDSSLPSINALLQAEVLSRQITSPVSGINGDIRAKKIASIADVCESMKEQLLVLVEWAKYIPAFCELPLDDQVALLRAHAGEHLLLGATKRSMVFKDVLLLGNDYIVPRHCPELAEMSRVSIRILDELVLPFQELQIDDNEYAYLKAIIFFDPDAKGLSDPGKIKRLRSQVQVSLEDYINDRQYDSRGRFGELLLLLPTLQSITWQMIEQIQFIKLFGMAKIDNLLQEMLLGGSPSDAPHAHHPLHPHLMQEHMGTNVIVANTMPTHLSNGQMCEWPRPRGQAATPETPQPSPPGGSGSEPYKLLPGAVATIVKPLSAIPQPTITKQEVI
# Beta2AR agonist = beta2AR agonists driving receptor internalization, primary screen, cell-based, FAP fluorogen, flow cytometry; 0.43% of 340,000 active; Am2.2-beta2AR cells; reference of the scale not given here; response, % (test concentration not listed);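 active = response above a set limit, near 3 SD of response in nonfluorescent compounds, cut at about 42% in these data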;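 note: stock transfer was 100 nL into about 11 µL; a reference agonist was the positive control; negative values mostly stem from fluorescent compounds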
# Target sequence (P07550 whole entry, looked up): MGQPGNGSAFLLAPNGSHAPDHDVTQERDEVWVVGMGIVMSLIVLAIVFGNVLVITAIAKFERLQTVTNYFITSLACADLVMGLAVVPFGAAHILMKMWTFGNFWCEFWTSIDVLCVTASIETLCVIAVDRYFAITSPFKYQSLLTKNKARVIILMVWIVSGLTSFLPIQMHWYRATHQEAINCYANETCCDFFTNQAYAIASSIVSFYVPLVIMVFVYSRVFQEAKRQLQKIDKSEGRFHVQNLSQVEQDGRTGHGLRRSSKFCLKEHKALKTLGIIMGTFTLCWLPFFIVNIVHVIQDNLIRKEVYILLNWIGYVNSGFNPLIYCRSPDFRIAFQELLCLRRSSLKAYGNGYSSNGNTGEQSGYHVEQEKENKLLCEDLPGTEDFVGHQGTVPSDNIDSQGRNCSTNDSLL
# Numbers without * were called inactive; ? = inconclusive; . = not tested or not shown; & = joins results of further samples. Outcome played no part in choosing rows; any-hit rate near 6.3%.
SMILES,ALR inh,Vif TR-FRET,RanGTP-Imp inh,Calb FLC,LANA-H2B inh,HNF4A DNA FP,Beta2AR agonist
Cc1ccc(-n2c(SCC3CCCCO3)nnc2-c2ccco2)cc1 (stereo not given),-13,2%,-0.1,-7,1.3,2.4,6
Cc1ccc(SCC(=O)Nc2ccc(S(N)(=O)=O)cc2)cc1,.,-3%,2.5,19,1.0,2.6,-4
CCN(CC)CCC#CC1(O)c2ccccc2-c2ccccc21,-24,.,0.8,0,-1.2,-2.5,0
COc1ccccc1N1CCN(c2ncnc3c2oc2ccccc23)CC1,3,-1%,3.4,14,-2.8,-0.1,4
CC(=O)N1CCC(N(C(=O)Nc2ccc(F)cc2)C2CCCC2)CC1,-1,-4%,2.1,-1,0.3,4.0,7
Cc1ccc(S(=O)(=O)N2CCCCC2)cc1NC(=O)COC(=O)c1ccccc1F,0,.,7.5,-13,-1.3,3.0,4
Cc1noc(C)c1COC(=O)CNC(=O)c1cccc(F)c1,-1,0%,1.9,-2,-1.2,4.0,-7
O=c1ccc2c([nH]1)CCCCCCCCCC2,-3,.,3.5,3,-0.2,-2.6,9
O=C(O)[C@@H]1CCCN1C(=O)c1ccccc1N1C(=O)[C@@H]2Cc3c([nH]c4ccccc34)C(c3cccc(Cl)c3)N2C1=O (stereo not given in full),97*,.,2.7,6,4.4,-6.1,-5
O=C1Nc2ccc(Br)cc2C12OCCO2,-8,.,2.3,-7,-4.6,3.3,-1
O=C(Nc1ccc(Cl)cc1)Nc1nc(-c2ccccc2O)cs1,-12,21%,-1.1,1,-2.6,5.4,-1
O=C(NCCC1=CCCCC1)C1CCN(S(=O)(=O)c2cccc(C(F)(F)F)c2)CC1,.,6%,.,.,-0.8,4.2,-11
N#Cc1c(-c2ccncc2)c2c([nH]c1=S)CCCC2,.,?,3.1,6,3.4,-7.0,6
O=C(CCc1nnc2ccc(NCc3ccccc3Cl)nn12)NCC1CCN(C2CCCC2)C1 (stereo not given),-5,.,0.5,6,1.1,0.6,4
CC(C)[C@H](NC(=O)c1ccccc1)C(=O)OCC(=O)NCC1CCCO1 (stereo not given in full),-3,.,.,.,0.9,1.1,-2
O=[N+]([O-])c1ccccc1-c1ccc(C(=S)N2CCN(c3ccccc3)CC2)o1,-66,3%,-2.7,1,0.3,4.6,2
CC(=O)c1ccc(C)cc1OC(=O)c1cccc(F)c1,-9,-8%,4.7,2,-0.3,-5.4,1
O=C(CN(c1ccccc1)S(=O)(=O)c1ccc(Cl)cc1)Nc1ccccc1C(=O)N1CCCC1,-25,16%,-3.9,-20,-1.1,10,-2
Cc1cc(C(=O)NNC(=O)/C=C/c2ccco2)c(C)o1,.,13µM*,.,.,.,-20,-8
CC(C)NC(=S)N/N=C1\CCCCC1C1CCCCC1 (stereo not given),5,20%,?,-33,12,8.5,18
Cc1cc(C(=O)C(C)OC(=O)c2ccc(NC(=O)CC#N)cc2)c(C)n1-c1ccccc1 (stereo not given),-8,-1%,-2.9,0,4.7,4.8,8
COC(=O)c1ccccc1NC(=O)C1CC(=O)N(c2ccc(C)cc2)C1 (stereo not given),-26,3%,-0.4,-2,5.6,-0.5,0
CCOC(=O)C1CCN(C(=O)CN(c2ccc(Cl)c(C(F)(F)F)c2)S(C)(=O)=O)CC1,3,-1%&6%,?,-4,-0.6,-1.0,-2
CCOc1ccc(NC(=O)COC(=O)c2n[nH]c3ccccc23)cc1,-1,-3%,.,.,-1.6,1.0,-2
CC1CCCN(Cc2cccc(Oc3ccccc3)c2)C1 (stereo not given),-11,-4%,-2.7,3,5.2,-0.2,9
O=C(CCCc1ccccc1)NCc1ccc2c(c1)OCO2,-16,.,-4.3,-2,4.5,2.4,-8
CCO[C@@H]1OC(C(N)=O)=C[C@H](c2ccccc2)[C@H]1CCCO,-5,-12%,1.3,-4,0.4,5.4,1
CCN(CC)C(=O)[C@H]1C[C@H](CC(=O)NCc2ccc(OC)c(OC)c2)C(=O)N2CCc3c([nH]c4ccc(Cl)cc34)[C@]12C,.,5%,.,.,.,2.1,2
COc1cccc2c1CCC1=CC(=O)CCC12C (stereo not given),.,2%,.,.,.,-1.8,-13
CC(=O)NS(=O)(=O)c1ccc(NC(=S)NC(=O)C2CCC2)cc1,.,.,3.5,5,.,4.1,0
COc1ccc(-c2noc(CN3CCOCC3)n2)cc1OC,-10,13%,?,-1,4.6,-4.9,12
CCOC(=O)C(=CNNc1ccsc1C(=O)OC)C(=O)OCC,1,0%,5.1,-4,-3.5,0.9,1
Cc1cc(C)c2nc(N3CCC(C(=O)NCc4cccnc4)CC3)sc2c1,-4,.,-3.6,-4,-3.5,-0.8,2
O=C(c1ccc(=O)[nH]c1)N1CCN(S(=O)(=O)c2ccc3ccccc3c2)CC1,-2,1%,.,.,7.0,3.1,-3
O=C(OCC#CCSc1nnc(-c2cccc3ccccc23)o1)c1ccc(Cl)cc1,21,.,.,.,8.3,2.5,-5
Cc1ccc2oc(=S)n(C)c2c1,-9,14%,5.3,4,3.6,1.4,-18
CCc1cccc(NC2c3ccccc3C(=O)N2c2cccnc2)c1 (stereo not given),.,5%,3.4,3,2.0,0.8,-10
Nc1ccc(S(N)(=O)=O)cc1N,84*,?,-1.3,12,4.9,-13,3
COc1cccc(NC(=O)CN(C)C(=O)Cn2cnc3ccccc3c2=O)c1,-10,6%,7.0,-2,0.3,-0.3,-4
COc1cccc2cc(CC(=O)c3ccccc3)c(=O)oc12,-10,-21%,-0.5,-1,1.6,2.5,0
S=C(NC1CCCC1)N1CCN(c2ccccn2)CC1,-9,.,4.5,38,3.1,0.3,-14
CCCN(CCC)Cc1cc(=O)oc2cc3c(cc12)CCC3,16,-9%,1.6,11,-2.0,-0.8,-4
COc1ccc(C)c2sc(N(CCCN(C)C)C(=O)c3ccc4c(c3)OCCO4)nc12,0,5%,-0.9,22,0.5,1.2,28
Cc1ccccc1NC1=NCC(c2ccc([N+](=O)[O-])cc2)S1 (stereo not given),-3,-7%,1.0,-10,1.2,-5.5,7
O=C(NC1CC2CCC(C1)N2Cc1ccccc1)c1ccccc1Br (stereo not given),-11,.,1.1,-1,-0.2,5.2,-11
O=C1CSC(=S)N1CC1CCCO1 (stereo not given),-8,4%,-2.6,32,3.2,1.4,7
COc1cccc(NC(=O)C(c2ccccc2)N2CCN(CC(=O)N3CCOCC3)CC2)c1 (stereo not given),.,.,.,.,-0.5,-2.7,-6
CN(C(=O)CSC1=NC2C(N=N1)c1cc(Br)ccc1N2C)C1CCCCC1 (stereo not given),-6,-4%,-1.9,-5,1.8,-3.6,-15
CCc1ccc2c(c1)C1(NN=C(c3ccccc3)S1)C(=O)N2 (stereo not given),34,13%,1.3,29,-2.0,-2.8,15
Cc1nc(C)c(NC(=O)OC(C)C)cc1NC(=O)OC(C)C,-15,3%,5.1,-13,-4.8,1.2,13
O=C(CCn1c(=S)oc2ccccc21)Nc1ccccc1F,-16,17%,-1.3,-20,3.3,-2.9,-5
CCN1C(=O)c2ccccc2S(=O)(=O)c2ccc(C(=O)NCc3cccnc3)cc21,2,-2%,-4.9,-1,6.9,0.7,1
c1ccc(-c2nc3ccccc3nc2N2CCOCC2)cc1,.,-6%,2.6,2,-5.0,1.6,-8
Cc1nc2scc(C)n2c(=O)c1S(=O)(=O)Nc1ccc(N2CCOCC2)c(Cl)c1,-5,.,1.4,-9,2.0,5.8,-4
Cn1c(N)c(C(=O)COC(=O)COc2ccc3ccccc3c2)c(=O)n(C)c1=O,-29,3%,?,16,0.7,-0.7,-1
CCCc1[nH]n(-c2nc3ccccc3s2)c(=O)c1C=NCCCN(CC)CC,0,2%,?,19,1.9,0.6,-16
O=C(NC(c1ccccc1)c1ccccn1)c1cccc([N+](=O)[O-])c1 (stereo not given),3,.,-0.1,-7,2.6,0.3,-7
CN(CC(=O)Nc1ccccc1C(F)(F)F)C(=O)Cc1ccc(S(=O)(=O)N2CCOCC2)s1,-1,5%,-0.9,0,0.9,-2.1,-4
O=C(Nc1cccc2nsnc12)c1ccc(F)cc1,-11,0%,-0.9,-6,-1.4,2.8,0
OCCC#Cc1ccc(CN2CCN(Cc3ccsc3)C(CCO)C2)cc1 (stereo not given),-2,22%,1.3,3,2.6,5.6,-7
# The results go on:
SMILES,ALR inh,Vif TR-FRET,RanGTP-Imp inh,Calb FLC,LANA-H2B inh,HNF4A DNA FP,Beta2AR agonist
Cc1cnc(CN(C)C(=O)C2CCC(=O)N(CCc3cccc(F)c3)C2)[nH]1 (stereo not given),-16,.,-2.2,6,.,1.9,4
CCCN1CCc2c(sc3nc(SCC)n(-c4ccc(OC)cc4)c(=O)c23)C1,.,1%,-8.7,-6,.,3.3,10
Cc1ccc(S(=O)(=O)NCC(=O)N(CC(=O)NCc2ccco2)Cc2ccc3c(c2)OCO3)cc1,-5,31%&3%,1.4,5,-3.8,-0.2,-4
Cc1cccn2c(=O)c3cc(S(=O)(=O)c4ccccc4)c(=N)n(CC4CCCO4)c3nc12 (stereo not given),-3,17%,158*,-27,-0.3,.,.
Cc1ccc(C)c(Nc2c([N+](=O)[O-])ccc3nonc23)c1,-3,.,-3.6,8,-1.1,-1.1,0
O=c1c2c3c(sc2nc2n1CCCCC2)CCCC3,54,0%,-1.7,-3,-0.7,2.0,-10
O=c1[nH][nH]c(=O)c2cc([N+](=O)[O-])ccc12,-67,-3%,.,.,40*,2.5&2.7,-365&8
CN(CC(=O)Nc1ccc2c(c1)OCCO2)Cc1nc2ccccc2c(=O)[nH]1,-11,-3%,.,.,5.4,1.1,2
COc1ccc(S(=O)(=O)N2CN(CCc3ccc(OC)c(OC)c3)c3nc4ccccc4nc32)cc1,2,.,0.0,-4,10,-3.7,-6

# In the list so far, these have a Cl atom.
SMILES,ALR inh,Vif TR-FRET,RanGTP-Imp inh,Calb FLC,LANA-H2B inh,HNF4A DNA FP,Beta2AR agonist
O=C(O)[C@@H]1CCCN1C(=O)c1ccccc1N1C(=O)[C@@H]2Cc3c([nH]c4ccccc34)C(c3cccc(Cl)c3)N2C1=O (stereo not given in full),97*,.,2.7,6,4.4,-6.1,-5
O=C(Nc1ccc(Cl)cc1)Nc1nc(-c2ccccc2O)cs1,-12,21%,-1.1,1,-2.6,5.4,-1
O=C(CCc1nnc2ccc(NCc3ccccc3Cl)nn12)NCC1CCN(C2CCCC2)C1 (stereo not given),-5,.,0.5,6,1.1,0.6,4
O=C(CN(c1ccccc1)S(=O)(=O)c1ccc(Cl)cc1)Nc1ccccc1C(=O)N1CCCC1,-25,16%,-3.9,-20,-1.1,10,-2
CCOC(=O)C1CCN(C(=O)CN(c2ccc(Cl)c(C(F)(F)F)c2)S(C)(=O)=O)CC1,3,-1%&6%,?,-4,-0.6,-1.0,-2
CCN(CC)C(=O)[C@H]1C[C@H](CC(=O)NCc2ccc(OC)c(OC)c2)C(=O)N2CCc3c([nH]c4ccc(Cl)cc34)[C@]12C,.,5%,.,.,.,2.1,2
O=C(OCC#CCSc1nnc(-c2cccc3ccccc23)o1)c1ccc(Cl)cc1,21,.,.,.,8.3,2.5,-5
Cc1nc2scc(C)n2c(=O)c1S(=O)(=O)Nc1ccc(N2CCOCC2)c(Cl)c1,-5,.,1.4,-9,2.0,5.8,-4
